Bioassay records from PubChem.
MT1-MMP act inh: MT1-MMP (human) activation inhibition | HT1080 RFP-PRO-GFP cells, GFP/RFP ratio fluorescence, overnight; percent of plate control window, DMSO zero | GFP/RFP ratio change, % at 20 µM | 360,000 tested, 0.061% active;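 active means GFP/RFP ratio change of at least 30% with cell ATP level not reduced by more than half and red fluorescence within 50% of control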; further: strong numbers were not always called active
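Assay system: RFP-PRO-GFP reporter HT1080 cells; read-out basis: GFP/RFP fluorescence ratio; benchmarks: DMSO wells and RFP-L50D-GFP cells; doses: 20 µM single dose, 1% DMSO; schedule: overnight cell settling, then overnight compound exposure, 37 °C, 5% CO2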
PABP FP inh: PABP-poly(A) binding inhibition. inhibition, % at 35 µM. PABP-poly(A) RNA binding, fluorescence polarization. AID 2014. 290,000 tested, 1% active. P11940;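 active means 50% or more with normal probe brightness, or confirmed in later tests; about a fifth of its hits are not listed in these tables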;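 further: calls also rest on retests at 20 µM and on dose response follow-up; controls were probe without protein and protein plus probe with vehicle; some compounds called inactive have numbers as strong as hits; many hits fall short of the cut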
Target sequence (P11940 whole entry, looked up): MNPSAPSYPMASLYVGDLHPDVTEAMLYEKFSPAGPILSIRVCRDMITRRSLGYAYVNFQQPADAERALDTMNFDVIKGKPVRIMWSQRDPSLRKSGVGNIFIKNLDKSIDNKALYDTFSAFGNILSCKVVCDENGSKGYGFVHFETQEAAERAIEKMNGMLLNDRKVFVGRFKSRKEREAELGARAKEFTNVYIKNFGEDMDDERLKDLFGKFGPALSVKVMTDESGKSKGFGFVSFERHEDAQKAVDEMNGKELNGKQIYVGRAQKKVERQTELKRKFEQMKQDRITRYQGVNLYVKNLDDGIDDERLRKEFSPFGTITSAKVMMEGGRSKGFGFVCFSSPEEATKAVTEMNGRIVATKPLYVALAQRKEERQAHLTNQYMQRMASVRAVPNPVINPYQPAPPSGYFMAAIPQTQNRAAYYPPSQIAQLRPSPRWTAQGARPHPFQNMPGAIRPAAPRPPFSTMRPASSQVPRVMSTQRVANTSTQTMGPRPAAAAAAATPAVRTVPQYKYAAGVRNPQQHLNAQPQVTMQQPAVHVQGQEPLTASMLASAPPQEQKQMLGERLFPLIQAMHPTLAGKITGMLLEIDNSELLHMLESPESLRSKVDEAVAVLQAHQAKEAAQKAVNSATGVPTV
Rce1 inh: blocks yeast Ras-converting enzyme | Q03530 | yeast membranes, quenched prenylated peptide cleavage fluorescence | calls only | 290,000 tested, 0.27% active | AID 2563;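 active means fall in fluorescence gain of 50% or more versus controls, with final raw signal at or below 3038400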;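 further: plate controls were neutral control wells for no effect and wells lacking membranes for full effect; tested at 10 µM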
Target sequence (Q03530 whole entry, looked up): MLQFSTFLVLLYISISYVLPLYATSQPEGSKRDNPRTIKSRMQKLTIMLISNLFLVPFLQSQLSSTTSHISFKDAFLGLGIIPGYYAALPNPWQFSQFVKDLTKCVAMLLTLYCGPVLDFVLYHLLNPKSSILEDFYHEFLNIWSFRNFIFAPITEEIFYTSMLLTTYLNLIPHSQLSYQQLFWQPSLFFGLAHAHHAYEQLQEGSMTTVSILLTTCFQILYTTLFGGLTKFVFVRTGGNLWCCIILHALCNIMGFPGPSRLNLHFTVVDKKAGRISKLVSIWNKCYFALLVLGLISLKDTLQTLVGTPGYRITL
Yeast UUG start: yeast start codon fidelity modulation; S. cerevisiae UUG-firefly luciferase reporter, luminescence/redox ratio; activity score, % at 18.7 µM; 350,000 tested, 0.13% active;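 active means replicate mean at a twofold rise or more, about +100% in these data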;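 further: firefly luciferase made from a UUG start codon reports start codon fidelity; reporter light over untreated wells divided by growth signal over untreated wells; some hits fall short of that in this replicate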
eIF4H FP inh: inhibitors of RNA binding by human eIF4H | eIF4H fluorescence polarization binding assay | inhibition, % at 35 µM | 290,000 tested, 0.94% active;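 active means 50% or more with normal probe brightness, or confirmed in later tests; about a fifth of its hits are not listed in these tables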;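 further: calls also rest on retests at 20 µM and on dose response follow-up; 0% = protein and probe with vehicle and 100% = probe without protein; strong numbers were not always called active; many hits fall short of the cut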
HIV Env fusion: HIV envelope-mediated fusion inhibition; inhibition, % at 12.3 µM; 360,000 tested, 1.1% active; AID 651610; HeLa-JRFL Env/CEM21 cell fusion, luciferase;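 active means mean replicate inhibition score of at least 50 and every replicate individually at or above 50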;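 further: 0% = plate neutral controls and 100% = maraviroc near 300 nM; one replicate is shown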
CSC inhib: cancer stem cell inhibition | cancer stem cell-like cells viability, luminescence | inhibition, % at 7.5 µM | 300,000 tested, 1.1% active | AID 2717;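 active means mean at 75% or more and at least half the replicates too; tested in HMLE shEcad cells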;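 further: 0% = median of negative and 100% = median of positive control wells; the first replicate is given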
MT1-MMP act inh RFP: second read-out of MT1-MMP act inh, no call of its own (marks repeat the call); RFP signal change, %; measured here: RFP expression control read;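 0 = vehicle wells; hits needed this value within 50% of zero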
* hit, by the source's call. Some of the compounds tested; rates above refer to the full screens.

For c1ccc(-c2nnc3n2N=C(c2ccc4c(c2)OCO4)CS3)nc1 the results were MT1-MMP act inh 3, PABP FP inh 8, Rce1 inh inactive, Yeast UUG start -18, eIF4H FP inh -4, CSC inhib 16 and MT1-MMP act inh RFP 4.
O=C(Nc1ccc(S(=O)(=O)Nc2nccc(C3Cc4ccccc4C(=O)O3)n2)cc1)c1ccccc1 (stereo unspecified) was read as MT1-MMP act inh 1, PABP FP inh 11, Rce1 inh inactive, Yeast UUG start 6, eIF4H FP inh -2, HIV Env fusion -39 and MT1-MMP act inh RFP -3.
Screening CCOC(=O)c1[nH]c2ccc(OC)cc2c1N=CN(C)C returned MT1-MMP act inh 4, PABP FP inh -11, Rce1 inh inactive, Yeast UUG start -6, eIF4H FP inh -3, HIV Env fusion -18, CSC inhib -6 and MT1-MMP act inh RFP 2.
CN(C)S(=O)(=O)c1cccc(NC(=S)N/N=C/c2cccc(O)c2)c1 was read as MT1-MMP act inh 5, PABP FP inh 11, Rce1 inh inactive, eIF4H FP inh -1, HIV Env fusion 19, CSC inhib -7 and MT1-MMP act inh RFP -1.
`COC(=O)CC1C(C(=O)OC)ON2OC(C(=O)OC)C(C(=O)OC)C12` (stereo unspecified) gave MT1-MMP act inh -3, PABP FP inh -13, Yeast UUG start -3, eIF4H FP inh -5, HIV Env fusion -1, CSC inhib -3 and MT1-MMP act inh RFP 2.
Screening O=C(NCc1ccco1)c1cccc(S(=O)(=O)N2CCN(Cc3ccccc3)CC2)c1 returned MT1-MMP act inh 1, Rce1 inh inactive, HIV Env fusion -11, CSC inhib -14 and MT1-MMP act inh RFP 2.
For O=C(CCn1cnnn1)NC1CCCN(Cc2ccccc2F)C1 (stereo unspecified) the results were MT1-MMP act inh -2, PABP FP inh -19, Rce1 inh inactive, Yeast UUG start -4, eIF4H FP inh -5, HIV Env fusion 29, CSC inhib -7 and MT1-MMP act inh RFP 3.
Screening COCCn1c(SCC(=O)Nc2cc(C)nn2-c2ccccc2)nnc1-c1ccncc1 returned MT1-MMP act inh -1, PABP FP inh -3, Rce1 inh inactive, eIF4H FP inh -6, HIV Env fusion -5, CSC inhib -16 and MT1-MMP act inh RFP 2.
`Cc1cccc(OCCCCc2c(C)n[nH]c2C)c1` gave MT1-MMP act inh -10, PABP FP inh 2, Rce1 inh inactive, Yeast UUG start -18, eIF4H FP inh -1, CSC inhib -4 and MT1-MMP act inh RFP -11.
`Cc1ccc(-c2csc3nc(SCC(=O)Nc4ccc(Cl)c(C(=O)O)c4)[nH]c(=O)c23)cc1` gave MT1-MMP act inh -7, PABP FP inh 34, Rce1 inh inactive, Yeast UUG start 9, eIF4H FP inh 9, HIV Env fusion -4, CSC inhib -3 and MT1-MMP act inh RFP 1.
`Cc1ccc(CNC(=O)CSc2ncn[nH]2)cc1` gave MT1-MMP act inh -1, PABP FP inh 2, Rce1 inh inactive, Yeast UUG start -26, eIF4H FP inh -1, HIV Env fusion -3, CSC inhib -20 and MT1-MMP act inh RFP 3.
`CCN1CCN(CC(=O)Nc2nc3ccc(OC)cc3s2)CC1` gave MT1-MMP act inh 4, PABP FP inh 20, Rce1 inh inactive, Yeast UUG start 1, eIF4H FP inh 0, CSC inhib 8 and MT1-MMP act inh RFP 1.
Screening Cc1ccc2cc(CN(Cc3cccs3)Cc3nnnn3CC3CCCO3)c(=O)[nH]c2c1C (stereo unspecified) returned MT1-MMP act inh -3, PABP FP inh 3, Rce1 inh inactive, Yeast UUG start -3, eIF4H FP inh 0, HIV Env fusion 13 and MT1-MMP act inh RFP -3.
Screening CC(=O)c1cccc(-c2ccnc3c2CC(C(=O)Nc2cccc(Oc4ccccc4)c2)O3)c1 (stereo unspecified) returned MT1-MMP act inh 1, Yeast UUG start -15, HIV Env fusion 24 and MT1-MMP act inh RFP -5.
`Cc1ccc(Nc2c([N+](=O)[O-])ccc3nonc23)cc1C` gave MT1-MMP act inh 3, PABP FP inh 4, Rce1 inh inactive, Yeast UUG start -13, eIF4H FP inh -8, HIV Env fusion -37, CSC inhib -7 and MT1-MMP act inh RFP -6.
For COc1cccc(C(=O)COc2ccccc2N2C(=O)C3C4C=CC(C4)C3C2=O)c1 (stereo unspecified) the results were MT1-MMP act inh -1, PABP FP inh 3, Rce1 inh inactive, eIF4H FP inh -4, HIV Env fusion -7, CSC inhib -2 and MT1-MMP act inh RFP 5.
COc1ccc(CCNC(=O)c2cc(Cl)nc3ccccc23)cc1 was read as MT1-MMP act inh 4, PABP FP inh -4, Rce1 inh inactive, Yeast UUG start 2, eIF4H FP inh -4, HIV Env fusion -3, CSC inhib -5 and MT1-MMP act inh RFP -4.
COc1ccc(Nc2nccc(OC)c2C#N)cc1 was read as MT1-MMP act inh 0, PABP FP inh -2, Rce1 inh inactive, Yeast UUG start -8, eIF4H FP inh 3, HIV Env fusion -9, CSC inhib -22 and MT1-MMP act inh RFP 3.
Screening Cc1ccc(S(=O)(=O)N2CCN(C(=O)CSc3ccc(Cl)cc3)CC2)cc1 returned MT1-MMP act inh -4, PABP FP inh -2, Rce1 inh inactive, Yeast UUG start -14, eIF4H FP inh 12, HIV Env fusion 19, CSC inhib 12 and MT1-MMP act inh RFP -12.
Screening O=C(CCc1nnc(-c2ccccc2)o1)NCC1CCN(C2CCCC2)CC1 returned MT1-MMP act inh 2, PABP FP inh 2, eIF4H FP inh -1, HIV Env fusion 12, CSC inhib -13 and MT1-MMP act inh RFP 4.
`O=C(O)c1cccc(S(=O)(=O)Nc2cc(Cl)ccc2Cl)c1` gave MT1-MMP act inh -1, PABP FP inh -5, Rce1 inh inactive, eIF4H FP inh -5, HIV Env fusion 6, CSC inhib 19 and MT1-MMP act inh RFP 1.
For O=C(CCCN1C(=O)c2ccccc2C1=O)NCCN1C(=O)S/C(=C\c2cccs2)C1=O the results were MT1-MMP act inh 0, PABP FP inh -4, Rce1 inh inactive, eIF4H FP inh 2, HIV Env fusion -17, CSC inhib -13 and MT1-MMP act inh RFP -2.
`COc1ccccc1NC(=O)COC(=O)/C=C/c1ccc(OC)c(OC)c1` gave MT1-MMP act inh 0, Yeast UUG start -8, CSC inhib -10 and MT1-MMP act inh RFP 4.
`COc1ccc2cc(C(=O)C3CCCN(Cc4ccccn4)C3)ccc2c1` (stereo unspecified) gave MT1-MMP act inh -5, PABP FP inh -13, Rce1 inh inactive, Yeast UUG start 5, eIF4H FP inh -7, HIV Env fusion -2, CSC inhib -7 and MT1-MMP act inh RFP -1.
Screening Cc1cccc(N2CCN(C3=NC(=O)/C(=C\c4cn[nH]c4-c4ccccc4)S3)CC2)c1 returned MT1-MMP act inh 2, PABP FP inh -5, Rce1 inh inactive, eIF4H FP inh -2, HIV Env fusion 21, CSC inhib 10 and MT1-MMP act inh RFP 1.
For O=C(O)c1ccccc1C(=O)Nn1cnnc1 the results were MT1-MMP act inh 1, PABP FP inh 6, Rce1 inh inactive, Yeast UUG start -3, eIF4H FP inh -5, HIV Env fusion -1, CSC inhib 0 and MT1-MMP act inh RFP 2.
`Cn1cnnc1SCC(=O)NN(c1ccccc1)c1ccccc1` gave MT1-MMP act inh 0, PABP FP inh -9, eIF4H FP inh -5, HIV Env fusion 23, CSC inhib -6 and MT1-MMP act inh RFP 1.
Cc1ccc(N2CC(C(=O)Nc3ncc([N+](=O)[O-])s3)CC2=O)cc1 (stereo unspecified) was read as MT1-MMP act inh 0, PABP FP inh 17, Rce1 inh inactive, Yeast UUG start 13, eIF4H FP inh 10, HIV Env fusion 12, CSC inhib -3 and MT1-MMP act inh RFP -4.
S=c1[nH]nc(COc2ccccc2)n1/N=C/c1ccc(Cl)cc1Cl was read as MT1-MMP act inh -3, PABP FP inh 0, Rce1 inh inactive, Yeast UUG start -15, eIF4H FP inh -5, HIV Env fusion 1, CSC inhib 2 and MT1-MMP act inh RFP -3.
Screening Cc1cc(NC(=O)CCCn2nc([N+](=O)[O-])c(Cl)c2C)no1 returned MT1-MMP act inh 7, PABP FP inh -1, Rce1 inh inactive, eIF4H FP inh -2, HIV Env fusion 2, CSC inhib -2 and MT1-MMP act inh RFP 1.
CCN(CC)CCCn1c(=S)[nH]c2cc(Cl)ccc2c1=O was read as MT1-MMP act inh 3, PABP FP inh -2, Rce1 inh inactive, Yeast UUG start -24, eIF4H FP inh -20 and MT1-MMP act inh RFP 2.
Screening O=C(O)c1cccc(Oc2cccc(Cl)n2)c1 returned MT1-MMP act inh -1, PABP FP inh -4, Rce1 inh inactive, Yeast UUG start -27, eIF4H FP inh -5, HIV Env fusion -10, CSC inhib -1 and MT1-MMP act inh RFP 4.
`Cc1ccc(CN(C)C2CCN(C)CC2)cc1` gave MT1-MMP act inh 5, PABP FP inh 12, Rce1 inh inactive, Yeast UUG start 11, eIF4H FP inh 3, HIV Env fusion 12, CSC inhib 7 and MT1-MMP act inh RFP 7.
Screening N/C(=N\c1nc(CSc2ccc(Cl)cc2)cc(=O)[nH]1)Nc1ccccc1C(F)(F)F returned MT1-MMP act inh -6, PABP FP inh -5, Rce1 inh inactive, eIF4H FP inh -2, HIV Env fusion 35, CSC inhib -6 and MT1-MMP act inh RFP -11.
For CCc1ccc(-c2csc3ncn(CC(=O)NCc4ccco4)c(=O)c23)cc1 the results were MT1-MMP act inh 0, PABP FP inh 22, Rce1 inh inactive, Yeast UUG start -21, eIF4H FP inh 10, HIV Env fusion 9 and MT1-MMP act inh RFP -13.
Screening CCCOc1cccc(CN2CCCCC2c2cccnc2)c1 (stereo unspecified) returned MT1-MMP act inh -5, PABP FP inh 7, Rce1 inh inactive, Yeast UUG start -8, eIF4H FP inh -6, HIV Env fusion 14, CSC inhib -6 and MT1-MMP act inh RFP -5.
CCc1ccccc1N(CC(=O)NC(C)C)C(=O)CCC(=O)Nc1nccs1 was read as MT1-MMP act inh 1, PABP FP inh -2, Rce1 inh inactive, Yeast UUG start -10, eIF4H FP inh -10, HIV Env fusion 13, CSC inhib -9 and MT1-MMP act inh RFP -2.
`COc1ccc(C(=O)Oc2cc(C)[nH]c(=O)c2[N+](=O)[O-])c(OC)c1` gave MT1-MMP act inh -3, PABP FP inh 7, Rce1 inh inactive, Yeast UUG start -10, eIF4H FP inh 4, HIV Env fusion 14, CSC inhib -7 and MT1-MMP act inh RFP 0.
Cc1cc(C)c(S(=O)(=O)N2CCN(C(=O)C3CCCO3)CC2)c(C)c1 (stereo unspecified) was read as MT1-MMP act inh 4, Yeast UUG start -15, CSC inhib -4 and MT1-MMP act inh RFP -5.

No new results follow: an excerpt of the list.
Screening N/C(=N\c1nc(CSc2ccc(Cl)cc2)cc(=O)[nH]1)Nc1ccccc1C(F)(F)F returned MT1-MMP act inh -6, PABP FP inh -5, Rce1 inh inactive, eIF4H FP inh -2, HIV Env fusion 35, CSC inhib -6 and MT1-MMP act inh RFP -11.
For CCc1ccc(-c2csc3ncn(CC(=O)NCc4ccco4)c(=O)c23)cc1 the results were MT1-MMP act inh 0, PABP FP inh 22, Rce1 inh inactive, Yeast UUG start -21, eIF4H FP inh 10, HIV Env fusion 9 and MT1-MMP act inh RFP -13.
Screening CCCOc1cccc(CN2CCCCC2c2cccnc2)c1 (stereo unspecified) returned MT1-MMP act inh -5, PABP FP inh 7, Rce1 inh inactive, Yeast UUG start -8, eIF4H FP inh -6, HIV Env fusion 14, CSC inhib -6 and MT1-MMP act inh RFP -5.
CCc1ccccc1N(CC(=O)NC(C)C)C(=O)CCC(=O)Nc1nccs1 was read as MT1-MMP act inh 1, PABP FP inh -2, Rce1 inh inactive, Yeast UUG start -10, eIF4H FP inh -10, HIV Env fusion 13, CSC inhib -9 and MT1-MMP act inh RFP -2.
`COc1ccc(C(=O)Oc2cc(C)[nH]c(=O)c2[N+](=O)[O-])c(OC)c1` gave MT1-MMP act inh -3, PABP FP inh 7, Rce1 inh inactive, Yeast UUG start -10, eIF4H FP inh 4, HIV Env fusion 14, CSC inhib -7 and MT1-MMP act inh RFP 0.
